# Six1-Eya2 blk – Six1/Eya2 interaction inhibition | Q15475+O00167 | AlphaScreen GST-Six1/His-Eya2 binding, biochemical; stronger effect = lower value; control for the full effect not named in the record | activity change, % (no concentration beside the values) | actives 0.56% (n = 360,000); in the data active = activity change below about -65%; inconclusive = about -30% to -65%; inactive = above about -30%; note: % is set by controls: 0 for no effect and ±100 for the full control effect; compound concentration not given in the record
#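 Six1/Eya2 binding was read as AlphaScreen signal after compounds were pinned into GST-Six1 plus His-tagged Eya2 (5X stock 250/500 nM) in pH 8.0 Tris/NaCl/TCEP buffer, beads added, then incubated 1 h, 37 C, dark.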
# D2 agonist – human D2 receptor agonism in beta-arrestin assay; P14416; DiscoveRx PathHunter D2 beta-arrestin, luminescence, 90 min; 100% = 57 uM dopamine signal; activation, % (concentration not given with the values); actives 0.084% (n = 360,000); AID 624465; in the data active = activation above about 40%; inconclusive = about 15% to 40%; inactive = below about 15%; note: compound concentration not given in the record; the text of the record calls up to 30% inactive
#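 Agonist mode: compounds alone added to overnight-plated D2 PathHunter cells for 90 min at 37 C, with 57 uM final dopamine (EC100) defining full response. Beta-arrestin recruitment detected by chemiluminescent reagent, read after 1 h at ambient temperature.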
# Sfp inh – inhibitors of Bacillus subtilis Sfp phosphopantetheinyl transferase | Q9F4F7 | Biochemical Sfp PPTase activity, qHTS | Potency, µM, without a hit: max response, negative = inhibition, most hits filed as inhibitors | actives 3.5% (n = 310,000); active = well fitted inhibition curve with a large enough effect; inconclusive = small, poorly fitted or top-dose-only effect, or another doubt; inactive = no such curve, though single readings can be large or run the other way;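 note: the enzyme is Sfp with the accession as filed and its product quenches rhodamine fluorescence; potency is the fitted concentration of half-maximal effect; 0% = enzyme reaction without inhibitor and -100% = no enzyme wells; top concentration of the series not given in the record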
#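 After 15 min at room temperature with compound, 15 nM Sfp received 5 uM rhodamine-CoA plus 12.5 uM BHQ-2-ybbR (50 mM Hepes pH 7.6, 10 mM MgCl2). Rate came from the fluorescence difference over 30 min, ex 525/em 598 nm.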
# TRPV1 potentiator – human TRPV1 potentiation | Q8NER1 | TRPV1-expressing cells, Fluo-8 calcium influx, capsaicin EC20 potentiation; host cell line not named in the record; control for the full effect not named in the record | potentiation, % at 8.33 µM | actives 0.02% (n = 320,000); active means potentiation above 80%; inconclusive means 30% to 80%; inactive means below 30%; note: 0% is about no effect
# Target sequence (Q8NER1 whole entry, looked up): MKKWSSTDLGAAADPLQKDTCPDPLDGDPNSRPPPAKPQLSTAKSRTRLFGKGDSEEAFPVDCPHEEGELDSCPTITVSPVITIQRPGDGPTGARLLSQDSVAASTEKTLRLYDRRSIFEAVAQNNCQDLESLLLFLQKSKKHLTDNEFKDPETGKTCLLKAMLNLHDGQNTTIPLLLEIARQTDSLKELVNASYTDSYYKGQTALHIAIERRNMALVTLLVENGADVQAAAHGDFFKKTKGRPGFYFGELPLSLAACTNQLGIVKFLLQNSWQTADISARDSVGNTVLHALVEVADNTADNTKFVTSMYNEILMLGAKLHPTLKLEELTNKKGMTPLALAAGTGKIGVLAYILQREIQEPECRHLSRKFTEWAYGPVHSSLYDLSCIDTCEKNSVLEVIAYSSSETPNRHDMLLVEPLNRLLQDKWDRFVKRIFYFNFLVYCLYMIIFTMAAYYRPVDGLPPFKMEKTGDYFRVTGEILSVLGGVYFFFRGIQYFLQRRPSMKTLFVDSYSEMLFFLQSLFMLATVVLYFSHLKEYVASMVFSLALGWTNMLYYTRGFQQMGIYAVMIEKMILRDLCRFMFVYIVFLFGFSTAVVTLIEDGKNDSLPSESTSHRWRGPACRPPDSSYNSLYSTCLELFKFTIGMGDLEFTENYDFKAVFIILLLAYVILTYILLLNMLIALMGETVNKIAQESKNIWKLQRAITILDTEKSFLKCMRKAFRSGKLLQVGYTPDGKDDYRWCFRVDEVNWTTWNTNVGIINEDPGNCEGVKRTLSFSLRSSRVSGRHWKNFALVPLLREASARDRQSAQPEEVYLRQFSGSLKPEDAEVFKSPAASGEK
#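 Cells expressing TRPV1 were dye-loaded with Fluo-8 and read kinetically: 10 s baseline, 3 min after compound (agonist portion), then 2 min after EC20 capsaicin (allosteric enhancer portion). Calcium-bound dye fluorescence at 480/520 nm.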
# CtBP-E1A blk – inhibitors of CtBP/E1A interaction | activity change, % (test concentration not listed) | AlphaScreen GST-E1A/His-CtBP binding, 1536-well; stronger effect = lower value; control for the full effect not named in the record | actives 0.49% (n = 340,000); in the data active means activity change below about -65%; inconclusive means about -30% to -65%; inactive means above about -30%; note: % is set by controls: 0 for no effect and ±100 for the full control effect; compound concentration not given in the record
#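 Steps: dispense buffer (Tris pH 8.0, NaCl 300 mM, TCEP 1 mM, BSA, Tween 20); add 5X protein mix (GST-E1A, His-CtBP, 125 nM each); pin 23 nL compound; 2 h at 37 °C, dark; add 5X beads (50 ug/mL); 1 h; read.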
# D2 PAM – positive allosteric modulators of human D2 dopamine receptor | P14416 | DiscoveRx D2 beta-arrestin cells, luminescence, 90 min; 100% = 57 uM dopamine signal | AID 624464 | actives 0.23% (n = 360,000) | potentiation, % (concentration not given with the values); active = potentiation of 50% or more; inconclusive = 30% to 50%; inactive = 30% or less;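 note: compound concentration not given in the record; tested on top of an EC20 dose of dopamine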
#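 PathHunter beta-arrestin assay in DiscoveRx D2 cells. Compounds were added with an EC20 of dopamine (50 nM final) for 90 min at 37 deg C. Luminescence was read 1 h after detection reagent, with 57 uM dopamine as the EC100 control.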
# PINK1 modulator – PINK1 expression modulation | actives 0.2% (n = 410,000) | PINK1 immunofluorescence, high-content cytometry, 24 h | Potency, µM (series often up to 76.6 µM), for the others: at the top dose activation (PINK1 increase), usual class: activators; active = well fitted activation curve with a large enough effect; inconclusive = small, poorly fitted or top-dose-only effect; inactive = flat fitted curve, though single readings scatter; cell line not stated here;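 note: potency is the fitted concentration of half-maximal effect; % of control where 0% means no effect; nearly all actives have a fitted effect of over 65% in size; a mitochondrial uncoupler was the plate control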
#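 PINK1 protein, normally rapidly degraded, was detected by immunofluorescence after 24 hour compound treatment of a stable cell line. Titration data (5 concentrations) came from laser-scanning cytometry, with CCCP-treated wells as controls.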
# An asterisk follows results filed as active; ? = inconclusive; nt = no result given; & = joins results of further samples; [ ] = dose if it differs, or a comment.
Structure	Six1-Eya2 blk	D2 agonist	Sfp inh	TRPV1 potentiator	CtBP-E1A blk	D2 PAM	PINK1 modulator
COc1cc(NC(=O)CSCC(=O)Nc2cccc(C(F)(F)F)c2)c(Cl)cc1Cl	-1	-0.2	27%	5	9	-16	nt
O=C(COc1ccccc1)N/N=C/c1sc(=O)n(Cc2cccc(C(=O)O)c2)c1Cl	-7	3.3	-3%	15	-7	-4	-1.8%
Cn1cc2cc([N+](=O)[O-])ccc2n1	5	0.8	-1%	-8	0	7	1.5%
COC(=O)CNC(=O)Cn1ccc2ccccc2c1=O	5	-1.5	19%	3	1	5	3.8%
Cn1cccc1Cc1nnc(SCC(=O)Nc2nccs2)n1CCc1ccccc1	-18	-4.8	79µM*	0	-8	-1	0.1%
COC(=O)C1(Cc2cc(-c3ccc(Cl)cc3)no2)CCN(C(=O)OC(C)(C)C)CC1	-2	-1.5	6%	1	-4	0	5.7%
O=C(O)c1cccc2c1C(=O)N(c1ccc3c(c1)Cc1ccccc1-3)C2=O	7	1.4	nt	nt	7	-2	19%
Cc1cc(NC(=O)c2ccc(F)cc2)ccc1NC(=O)c1ccco1	-1	0.3	4%	-3	0	-2	3.3%
Cn1c(CNS(=O)(=O)c2ccc(Cl)cc2)n[nH]c1=S	-1	-4.8	-1%	3	-1	-21	0.1%
O=C(Cn1nnc(-c2ccccc2NC(=O)c2ccccc2F)n1)NC1CCCC1	0	2.2	10%	-3	2	1	-2.5%

# Further compounds follow.
Structure	Six1-Eya2 blk	D2 agonist	Sfp inh	TRPV1 potentiator	CtBP-E1A blk	D2 PAM	PINK1 modulator
Cc1ccc(NCC(=O)Nc2ccc(Br)cc2)cc1F	4	-2.5	14%	-1	1	7	4.6%
CCN1CC2([N+](=O)[O-])C=CC(=O)C([N+](=O)[O-])(C1)C2CC(=O)c1ccccc1 (stereo not given)	-9	-1.3	-1%	0	-4	3	0.1%
COc1ccc(CCNC(=O)C2CCCN(Cc3nc(-c4ccccc4C)oc3C)C2)cc1OC (stereo not given)	-10	-0.4	14%	-1	-2	-15	-0.7%
CCOC(=O)/C=c1\s/c(=C(\C#N)C(=O)NC)n(-c2ccccc2)c1=O	9	0.2	-16%	-6	10	7	-0.2%
O=C(CN1CCCCC1)NCCNc1ccc(C(F)(F)F)cc1[N+](=O)[O-]	-4	-0.7	8%	-7	2	-19	0.2%
O=C1c2ccccc2C(=O)N1CCCc1cn(C[C@H]2CC[C@H](Cn3cc(CCCN4C(=O)c5ccccc5C4=O)nn3)O2)nn1	0	0.4	nt	nt	0	nt	0.0%
O=C(NCCN1CCCCC1)Nc1ccc(F)c(Cl)c1	0	-0.9	13%	-16	-3	-21	-4.8%[38.3 µM]
O=C(CNC(=O)c1ccc(Br)o1)Nc1ccc(N2CCCCCC2)cc1	?	-9.7	nt	-1	-2	2	1.8%
Cn1c(=O)[nH]c(=O)c2[nH]c(CN3CCN(C(=O)c4ccco4)CC3)nc21	3	1.3	-17%	-8	-4	-3	-1.9%[38.3 µM]
COc1c2occc2c(OC)c2c(=O)cc(C(F)(F)C(F)(F)F)oc12	0	-1.8	33%[activator]	-21	9	-6	-2.9%[38.3 µM]

# (list continues)
Structure	Six1-Eya2 blk	D2 agonist	Sfp inh	TRPV1 potentiator	CtBP-E1A blk	D2 PAM	PINK1 modulator
O=C(O)CCC(=O)N1N=C(c2ccccc2)CC1c1ccc2nccnc2c1 (stereo not given)	1	-0.3	14%	5	1	13	1.2%
COc1ccc(CN2C(=NC(=O)C3CC3)SC3CS(=O)(=O)CC32)cc1OC (stereo not given)	12	-3.2	10%	-1	11	-5	1.0%
O=C(CN1C(=O)NC2(CCCCC2)C1=O)N1CCN(c2ncccn2)CC1	5	1.2	nt	9	3	12	2.1%
O=C(COC(=O)c1ccc(S(=O)(=O)N2CCc3ccccc3C2)cc1)NC1CCS(=O)(=O)C1 (stereo not given)	4	-0.1	-4%	6	9	-2	-0.5%
O=C(COC(=O)c1ccc(Br)cc1)NC(=O)NCc1ccccc1	3	13	nt	-6	2	-1	4.7%
O=C(CSc1nc(-c2ccccc2)cc(C(F)(F)F)n1)NCc1ccco1	5	0.1	-6%	-16	7	-5	nt
CCN1CCN(C(=O)c2[nH]c3ccc(OC)cc3c2C)CC1	7	-7.4	-4%	-6	nt	-7	-0.6%
Cc1ccccc1Nc1nc(N)nc(CSc2nncn2C)n1	7	-4.0	26%	-1	25	5	-0.1%
CC1CCN(CCOc2cc(Cl)ccc2Cl)CC1	-6	0.8	-14%	6	0	-19	?
COc1ccc2nc(SC(C)C(=O)NC3CCCC3)[nH]c2c1 (stereo not given)	-4	0.8	nt	4	8	-7	0.8%

# Remaining list, next part:
Structure	Six1-Eya2 blk	D2 agonist	Sfp inh	TRPV1 potentiator	CtBP-E1A blk	D2 PAM	PINK1 modulator
CN(C(=O)CCN1C(=O)/C(=C/c2ccccc2F)SC1=S)C1CCS(=O)(=O)C1 (stereo not given)	1	3.9	2%	-5	-4	-4	1.1%
CC(C)N1C(=O)C2(OCCCO2)c2cc(Br)ccc21	11	1.1	12%	-26	nt	-13	1.5%
Cc1cccnc1NC(=O)C1CCN(S(=O)(=O)c2ccc3c(c2)CCC(=O)N3)CC1	-7	-4.3	17%	25	2	3	0.4%
Brc1ccc2ncc(Br)cc2c1	4	-2.4	4%	-3	20	-9	10%
CN(C)S(=O)(=O)c1cc(NC(=O)CNCc2ccc(F)cc2)ccc1Cl	2	1.0	?	-4	-3	-26	2.2%
COc1ccc2c(c1)[C@H]1[C@H](CO2)[C@H](c2ccccc2)[C@]2(C)C(=O)Nc3ccccc3C(=O)N12	-18	-1.3	nt	27	-17	-16	2.6%
C=C(C)CNC(=S)N/N=C/c1ccc(N2CCOCC2)cc1	-9	5.6	0%	-5	3	-7	0.1%
CCN(CC(=O)NCCN1CCOCC1)S(=O)(=O)c1ccc(F)cc1	0	-2.6	14%	4	5	-2	0.5%
Cc1ccc(S(=O)(=O)N2CCOCC2)cc1C(=O)c1nccn1C	8	-3.5	9%	2	0	-6	0.4%
O=C1C2Sc3[nH]c(=O)sc3C(c3ccccc3)C2C(=O)N1c1ccccc1 (stereo not given)	-1	-3.1	79µM*	11	3	-8	0.5%

# Continued (5 carried over from the part before).
Structure	Six1-Eya2 blk	D2 agonist	Sfp inh	TRPV1 potentiator	CtBP-E1A blk	D2 PAM	PINK1 modulator
COc1ccc2c(c1)[C@H]1[C@H](CO2)[C@H](c2ccccc2)[C@]2(C)C(=O)Nc3ccccc3C(=O)N12	-18	-1.3	nt	27	-17	-16	2.6%
C=C(C)CNC(=S)N/N=C/c1ccc(N2CCOCC2)cc1	-9	5.6	0%	-5	3	-7	0.1%
CCN(CC(=O)NCCN1CCOCC1)S(=O)(=O)c1ccc(F)cc1	0	-2.6	14%	4	5	-2	0.5%
Cc1ccc(S(=O)(=O)N2CCOCC2)cc1C(=O)c1nccn1C	8	-3.5	9%	2	0	-6	0.4%
O=C1C2Sc3[nH]c(=O)sc3C(c3ccccc3)C2C(=O)N1c1ccccc1 (stereo not given)	-1	-3.1	79µM*	11	3	-8	0.5%
CCC(C)Sc1nc2c(c(=O)[nH]1)C(c1cccs1)C1=C(CCCC1=O)N2 (stereo not given)	-10	-0.8	12%	-15	0	7	9.7%
CCOc1cc2c(C)cc(=O)oc2cc1Cl	1	-0.6	12%	nt	6	-5	1.3%[38.3 µM]
CCOC(=O)c1c(C)c(C(=O)NCc2ccco2)c(C)n1CC	2	-4.3	-8%	-7	-3	-5	0.2%
Nc1ncnc2nc(SCc3ccccc3)[nH]c12	1	-1.0	7%	6	-3	-10	1.6%
CC(=O)c1ccc(NC(=O)CCc2c(C)nn(-c3ccc(N4CCOCC4)nn3)c2C)cc1	-1	2.3	21%	3	-2	0	-0.1%&1.2%
CCN1C(C)=C(C)S/C1=C1\SC(=S)N(C2CCCCC2)C1=O	-8	-1.3	16%	3	nt	-6	6.5%
Cc1cccc(/C=C2/SC(=O)N(Cc3ccccc3Cl)C2=O)n1	6	-1.8	10%	-4	12	12	12%[38.3 µM]
Cc1cccc(CN2CCN(Cc3ccc4nonc4c3)CC2CCO)n1 (stereo not given)	-4	-8.4	14%	9	nt	-12	-0.4%
CCOc1ccc(-c2cc(C(=O)OC)[nH]n2)cc1	16	0.5	-5%	3	-1	0	3.4%
Cc1sc(NC(=S)Nc2ccc(F)cc2)c(C(N)=O)c1C	-1	4.3	20µM*	27	nt	-10	4.0%

# Entries listed so far marked active in Sfp inh.
Molecule | Six1-Eya2 blk | D2 agonist | Sfp inh | CtBP-E1A blk | D2 PAM
Cn1cccc1Cc1nnc(SCC(=O)Nc2nccs2)n1CCc1ccccc1 | -18 | -4.8 | 79µM* | -8 | -1
O=C1C2Sc3[nH]c(=O)sc3C(c3ccccc3)C2C(=O)N1c1ccccc1 (stereo not given) | -1 | -3.1 | 79µM* | 3 | -8
Cc1sc(NC(=S)Nc2ccc(F)cc2)c(C(N)=O)c1C | -1 | 4.3 | 20µM* | nt | -10

# Remaining list, next part.
Structure	Six1-Eya2 blk	D2 agonist	Sfp inh	TRPV1 potentiator	CtBP-E1A blk	D2 PAM	PINK1 modulator
NC1=NCc2ccccc21	2	-1.5	6%	-31	5	-18	nt
Nc1nc(Cl)cc(N2CCC(c3cc(-c4ccc(Cl)cc4)n[nH]3)CC2)n1	-7	4.7	8%	0	-3	23	-4.5%[38.3 µM]
Nc1ccc(N=Nc2ccccc2O)c(N)c1	?	3.6	nt	nt	?	1	0.3%
CCC(c1nnnn1-c1ccc2c(c1)OCCO2)N1CCN(C(=O)C2CCCO2)CC1 (stereo not given)	7	nt	nt	nt	-6	nt	0.2%
COc1ccc(CC(=O)NCc2ccccc2Cl)cc1S(=O)(=O)N1CCOCC1	0	-2.0	10%	-12	-5	-8	3.8%
Cc1sc2nc(CSCC(=O)N(C)CC(=O)Nc3ccc(F)cc3)[nH]c(=O)c2c1C	-8	-2.2	nt	2	-24	-10	5.3%
COc1ccc(C(C(=O)NC2CCCC2)N(C(=O)c2ccco2)c2ccccc2OC)cc1 (stereo not given)	2	-1.2	19%	-4	2	-8	2.5%
O=C(OCc1nnc(-c2ccccc2)o1)c1cc(S(=O)(=O)N2CCOCC2)ccc1F	4	-1.8	nt	-23	3	?	2.7%
COC(=O)[C@]12C(=O)C(C)=C(O)[C@@]1(C)C(C)=CC1[C@@]34CC[C@@H](OC(C)=O)C(C)(C)C3C(C[C@]12C)OC4=O (stereo not given in full)	2	-2.1	11%	-3	-1	0	1.7%
